# Ecoli rRNA inh: reduced GFP signal of wild-type E. coli, primary screen, bacterial rRNA inhibitor project, GFP/RFP fluorescence, OD600, single point; E. coli WT GFP vs humanized-ribosome RFP mutants, 24 h; stronger effect = lower value; DMSO median 0, no signal -100; GFP signal change (wild-type ribosome), % (concentration not given with the values); hit rate 1.6% among 350,000; AID 720706, 2013;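 active means significant combined selectivity score with lowered wild-type GFP, culture density cut under 30%, mutant RFP and density less affected; inactive means any of these conditions unmet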; further: one replicate is shown; some compounds called inactive have numbers as strong as hits
# FGF22 binding: binders of human FGF22 protein, primary screen, FGF22 synaptogenesis inhibitor project, biophysical, thermal shift, single point; Fibroblast growth factor 22 (Homo sapiens), Q9HCT0; recombinant FGF22 thermal shift, SYPRO orange fluorescence; percent of sucrose octasulfate shift, DMSO zero; calls only at 9.99 µM; hit rate 1.5% among 340,000; AID 651658, 2012;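 active means melting point raised past a set limit in the mean and every replicate; three in four hits are not shown here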
# Target sequence (Q9HCT0 whole entry, looked up): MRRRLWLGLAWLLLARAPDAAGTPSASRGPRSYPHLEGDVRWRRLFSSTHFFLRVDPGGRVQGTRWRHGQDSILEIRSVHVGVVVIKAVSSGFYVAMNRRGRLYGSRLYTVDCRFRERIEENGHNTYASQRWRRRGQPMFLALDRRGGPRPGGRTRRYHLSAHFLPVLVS
# Ecoli rRNA inh OD600: recorded beside Ecoli rRNA inh, whose call it bears; OD600 change, %; measured here: OD600 growth;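 optical density of the mix in the first replicate; 0 = DMSO median and -100 = no signal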
# Ecoli rRNA inh RFP: also measured in Ecoli rRNA inh; calls as there; RFP signal change, %; measured here: RFP humanized mutant strains;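 first replicate; 0 = DMSO median and -100 = no signal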
# An asterisk follows results filed as active; i = inactive. An excerpt, so the mix of outcomes need not match the whole.
SMILES,Ecoli rRNA inh,Ecoli rRNA inh OD600,Ecoli rRNA inh RFP,FGF22 binding
O=C(c1ccccn1)N1CC[C@@H]2[C@H](CO)Nc3ccc(-c4cccc(F)c4)cc3[C@@H]21,-4,-18,1.1,i
COCC(=O)Nc1ccc2c(c1)[C@H]1C[C@H](CC(=O)NCc3cc(F)ccc3F)O[C@H](CO)[C@H]1O2,-2,-1,-1.5,i
C[C@H]1CCCCO[C@H](CN(C)C(=O)CCC(F)(F)F)[C@@H](C)CN([C@@H](C)CO)C(=O)c2cc(NS(=O)(=O)c3cccs3)ccc2O1,-4,-9,0.8,i
Brc1ccc2nc(-c3ccc(CN4CCC5(CC4)CNc4ccccc45)cc3)c(-c3ccccc3)nc2c1,15,21,2.8,i
CNC(=O)C[C@@H]1CC[C@@H]2[C@H](COc3ccc(NC(=O)NC(C)C)cc3C(=O)N2C)O1,0,0,-1.6,i
CC(=O)Nc1ccc2c(c1)C(=O)N(C)[C@@H]1CC[C@@H](CC(=O)NC3CCCCC3)O[C@H]1CO2,3,1,-0.1,i
C[C@@H]1CCCCO[C@@H](CN(C)Cc2ccc3c(c2)OCO3)[C@H](C)CN([C@H](C)CO)C(=O)c2cc(NC(=O)Cc3ccccc3)ccc2O1,0,-6,-0.8,i
C[C@@H]1CN([C@@H](C)CO)C(=O)c2cc(NC(=O)CCC(F)(F)F)ccc2O[C@@H](C)CCCCO[C@@H]1CN(C)C(=O)c1ccncc1,1,7,-0.8,i
COc1ccc2c3c(n(C)c2c1)[C@@H](CO)N(C(=O)c1cccnc1)CC31CCN(C(=O)c2cccnc2)CC1,3,15,-2.7,i
COC(=O)C1=C(C)N(Cc2ccccc2C(F)(F)F)C(=NCc2ccc(OC)cc2)NC1c1cccc(F)c1 (configuration not stated),-43,-67,-14,i
O=[N+]([O-])c1cccc(I)c1,8,4,-0.1,i
COC(=O)C1=CN(c2cccc(OCc3ccccc3)c2)C(N)=C(C#N)C1c1ccccc1 (configuration not stated),0,12,2.3,i
COc1ccc(S(=O)(=O)Nc2ccc3c(c2)C(=O)N([C@H](C)CO)C[C@H](C)[C@@H](CN(C)CC2CCCCC2)OCCCC[C@H](C)O3)cc1,4,0,2.4,i
COc1ccc2c(c1)[C@H]1[C@H](CO2)[C@H](c2ccccc2)[C@]2(C)C(=O)Nc3ccc(Cl)cc3C(=O)N12,0,3,2.6,i
C[C@@H]1CCCCO[C@H](CN(C)Cc2ccccc2)[C@@H](C)CN([C@@H](C)CO)C(=O)c2cc(NC(=O)c3ccccc3)ccc2O1,0,5,-4.3,i
Cc1noc(C)c1S(=O)(=O)Nc1ccc2c(c1)CC(=O)N([C@@H](C)CO)C[C@@H](C)[C@@H](CN(C)S(C)(=O)=O)O2,4,8,1.2,i
C[C@@H]1CCCCO[C@H](CN(C)C(=O)Cc2ccccc2)[C@H](C)CN([C@@H](C)CO)C(=O)c2cc(NS(=O)(=O)c3ccc(F)cc3)ccc2O1,-4,-7,0.2,i
CN(C)CC(=O)N1CC[C@@H]2[C@H]1c1cc(Br)ccc1N(C)[C@H]2CO,4,4,-4.0,i
COc1cccc(CNC(=O)[C@H]2CCCN2C(=O)C2CCCN2C(=O)c2ccc(OC)c(F)c2)c1 (some centres not stated),24,2,6.5,i
CCCCC1O[C@@H](C)[C@@H]2CN3CCc4c([nH]c5ccccc45)[C@@H]3C[C@@H]2N1C (some centres not stated),-4,9,12,i
Cc1ccc(S(=O)(=O)Nc2ccc3c(c2)C(=O)N([C@@H](C)CO)C[C@H](C)[C@@H](CN(C)Cc2ccccc2)OCCCC[C@@H](C)O3)cc1,0,-6,7.3,i
CNC(=O)C[C@H]1CC[C@H]2[C@@H](COC[C@@H](O)CN2S(=O)(=O)c2ccccc2Cl)O1,3,-1,-4.8,i
CCCNC(=O)Nc1ccc2c(c1)C(=O)N(C)[C@H]1CC[C@@H](CC(=O)NC)O[C@@H]1CO2,3,3,-1.5,i
O=C(c1ccccc1)N1CC[C@@H]2[C@H]1c1cc(C#Cc3cccc(F)c3)ccc1N[C@@H]2CO,-8,-7,2.0,i
CCC(=O)N1CC2(C1)[C@@H](c1ccc(-c3ccccc3)cc1)[C@@H](CO)N2C(C)=O,0,-3,-2.3,i
# Next results
SMILES,Ecoli rRNA inh,Ecoli rRNA inh OD600,Ecoli rRNA inh RFP,FGF22 binding
COc1ccc(NC(=O)N(C)C[C@@H]2Oc3c(NS(=O)(=O)c4ccc(F)cc4)cccc3C(=O)N([C@@H](C)CO)C[C@@H]2C)cc1,1,-1,-0.3,i
C=C1[C@@H](O)[C@H](CC(C)C)N(Cc2ccccc2Br)S1(=O)=O,-17,12,12,i
C[C@H]1CCCCO[C@H](CN(C)C(=O)Nc2cccc3ccccc23)[C@@H](C)CN([C@@H](C)CO)C(=O)c2cc(NC(=O)Nc3ccccc3)ccc2O1,2,8,1.0,i
CN(C)C(=O)N1CCN(C(=O)[C@@H](Cc2ccccc2)NC(=O)[C@H]2O[C@@H](n3ccc(N)nc3=O)[C@H](O)[C@@H]2O)CC1,12,11,3.1,i
C[C@H](CO)N1C[C@H](C)[C@@H](CN(C)C(=O)Nc2ccccc2)Oc2ncc(-c3ccccc3)cc2C1=O,-5,-1,-2.6,i
COc1ccc(NC(=O)N(C)C[C@@H]2OCCCC[C@@H](C)Oc3ccc(NC(=O)Nc4cccc5ccccc45)cc3C(=O)N([C@H](C)CO)C[C@@H]2C)cc1,1,6,-3.2,i
CN(C)C(=O)c1cccc(-c2ccc3c(c2)[C@H]2[C@H](CCN2C(=O)Cc2ccccn2)[C@H](CO)N3C)c1,7,21,-2.2,i
C[C@@H]1CN([C@@H](C)CO)C(=O)c2cc(NS(C)(=O)=O)ccc2O[C@@H](C)CCCCO[C@@H]1CN(C)C(=O)NC1CCCCC1,5,2,-3.3,i
CN1CCCCC(NC(=O)C2CCCCC2)C1=O (configuration not stated),10,10,2.7,i
CCN(C[C@@H]1[C@@H](c2ccccc2)[C@H](CO)N1CC1CC1)C(=O)c1ccccn1,5,4,-0.1,i
C[C@@H]1ON(C)[C@H]2C[C@H]3c4cc(-c5ccc6c(c5)OCO6)ccc4CCN3C[C@@H]12,12,1,4.5,i
CC(=O)N1[C@H](CO)[C@@H](c2ccccc2)[C@@H]1CN(C)C(=O)c1ccccc1F,1,1,-0.6,i
CC(C)C(=O)Nc1ccc2c(c1)C(=O)N(C)[C@@H]1CC[C@H](CC(=O)N[C@H](C)c3ccccc3)O[C@@H]1CO2,3,1,0.4,i
COC(=O)C[C@@H]1CC[C@@H]2[C@@H](COc3ccc(NC(=O)c4cc(F)cc(F)c4)cc3C(=O)N2C)O1,1,0,2.1,i
C[C@@H]1CCCCO[C@H](CN(C)CC2CCCCC2)[C@H](C)CN([C@@H](C)CO)C(=O)c2cc(NC(=O)CCC(F)(F)F)ccc2O1,0,2,0.0,i
C[C@H]1CCCCO[C@H](CN(C)S(=O)(=O)c2ccc(Cl)cc2)[C@@H](C)CN([C@@H](C)CO)C(=O)c2cc(NS(=O)(=O)c3ccc(Cl)cc3)ccc2O1,-2,6,-3.9,i
Cc1ccc2nc(CN(C)C(=O)[C@@H](Cc3ccccc3)NC(=O)[C@H]3O[C@@H](n4cnc(C(N)=O)n4)[C@H](O)[C@@H]3O)[nH]c2c1,11,22,1.6,i
O=C(CN1CCOCC1)N1CCCCN2[C@H](C1)[C@H](c1ccc(Br)cc1)[C@@H]2CO,-4,-3,1.0,i
Cc1cc(NC(=O)CCc2c[nH]c3ccccc23)ccc1Oc1cccnc1,-18,-38,-2.3,i
COc1ccc(CN(C)C[C@H]2OCCCC[C@@H](C)Oc3ccc(NC(=O)Cc4ccccc4)cc3C(=O)N([C@@H](C)CO)C[C@H]2C)cc1,-3,-1,-0.8,i
Cc1cccc(-c2ccc([C@H]3[C@@H](CO)N4CCCCN(C(=O)c5ccncc5)C[C@@H]34)cc2)c1,6,-4,1.7,i
O=C(C[C@H]1CC[C@H]2[C@@H](COC[C@@H](O)CN2C(=O)Nc2ccc3c(c2)OCO3)O1)N1CCN(c2ccccc2)CC1,2,1,-2.5,i
COc1ccc(S(=O)(=O)Nc2ccc3c(c2)C(=O)N([C@H](C)CO)C[C@H](C)[C@H](CN(C)S(=O)(=O)c2ccc(OC)cc2)OCCCC[C@H](C)O3)cc1,1,8,0.5,i
CC(C)NC(=O)Nc1ccc2c(c1)C(=O)N([C@H](C)CO)C[C@@H](C)[C@@H](CN(C)Cc1ccc3c(c1)OCO3)OCCCC[C@@H](C)O2,-1,-2,-0.4,i
C=CCN=C1NC(c2ccccc2C(F)(F)F)C(C(=O)OC)=C(C)N1Cc1ccc(C(F)(F)F)cc1 (configuration not stated),-51,-78,-16,i

# 3 compounds already listed, sorted by number of heavy atoms, low to high:
SMILES,Ecoli rRNA inh,Ecoli rRNA inh OD600,Ecoli rRNA inh RFP,FGF22 binding
Cc1cc(NC(=O)CCc2c[nH]c3ccccc23)ccc1Oc1cccnc1,-18,-38,-2.3,i
CC(C)C(=O)Nc1ccc2c(c1)C(=O)N(C)[C@@H]1CC[C@H](CC(=O)N[C@H](C)c3ccccc3)O[C@@H]1CO2,3,1,0.4,i
C[C@@H]1CCCCO[C@H](CN(C)CC2CCCCC2)[C@H](C)CN([C@@H](C)CO)C(=O)c2cc(NC(=O)CCC(F)(F)F)ccc2O1,0,2,0.0,i

# Record cards, as listed above. Order of screens: Ecoli rRNA inh, Ecoli rRNA inh OD600, Ecoli rRNA inh RFP, FGF22 binding
# CN(C)C(=O)c1cccc(-c2ccc3c(c2)[C@H]2[C@H](CCN2C(=O)Cc2ccccn2)[C@H](CO)N3C)c1 reads 7, 21, -2.2, i
# C=CCN=C1NC(c2ccccc2C(F)(F)F)C(C(=O)OC)=C(C)N1Cc1ccc(C(F)(F)F)cc1 (configuration not stated) reads -51, -78, -16, i
# Cc1ccc2nc(CN(C)C(=O)[C@@H](Cc3ccccc3)NC(=O)[C@H]3O[C@@H](n4cnc(C(N)=O)n4)[C@H](O)[C@@H]3O)[nH]c2c1 reads 11, 22, 1.6, i
# CC(C)C(=O)Nc1ccc2c(c1)C(=O)N(C)[C@@H]1CC[C@H](CC(=O)N[C@H](C)c3ccccc3)O[C@@H]1CO2 reads 3, 1, 0.4, i
# Cc1cc(NC(=O)CCc2c[nH]c3ccccc23)ccc1Oc1cccnc1 reads -18, -38, -2.3, i

# Carrying on:
SMILES,Ecoli rRNA inh,Ecoli rRNA inh OD600,Ecoli rRNA inh RFP,FGF22 binding
CC(C)NC(=O)Nc1ccc2c(c1)C(=O)N(C)[C@@H]1CC[C@@H](CC(=O)NC3CCCCC3)O[C@H]1CO2,2,4,-0.4,i
CC[C@H](NC(=O)[C@H](Cc1ccccc1)NC(=O)[C@H]1O[C@@H](n2cnc3c(=O)[nH]c(N)nc32)[C@H](O)[C@@H]1O)c1ccccc1,14,14,2.6,i
C[C@@H]1CCCCO[C@@H](CN(C)C(=O)CCCN(C)C)[C@H](C)CN([C@@H](C)CO)C(=O)c2cc(NC(=O)Nc3ccc(C(F)(F)F)cc3)ccc2O1,-3,-38,33,i
Cc1ccc(S(=O)(=O)Nc2ccc3c(c2)C(=O)N([C@@H](C)CO)C[C@@H](C)[C@@H](CN(C)Cc2ccccc2)OCCCC[C@@H](C)O3)cc1,5,-38,35,i
Cc1cccc(C)c1NC(=O)C1(C)CN(S(C)(=O)=O)CC(=O)N1Cc1ccc2c(c1)OCO2 (configuration not stated),7,17,0.8,i
Cc1ccccc1CN1C(=O)CN(S(C)(=O)=O)CC1(C)C(=O)Nc1c(C)cccc1C (configuration not stated),9,10,2.1,i
CNC(=O)C[C@H]1CC[C@H]2[C@@H](COc3ccc(NC(=O)c4cccs4)cc3C(=O)N2C)O1,1,2,-0.8,i
Cn1cc(CCOCc2ccc(Br)cc2)c2ccccc21,-5,7,-1.2,i
O=C(N[C@@H](Cc1cccnc1)C(=O)N1CCC[C@H]1C(=O)NCCc1ccccc1Cl)c1ccccc1,-14,-13,2.5,i
COC(=O)C1=C(C)N(Cc2ccc(Cl)cc2)C(=S)NC1c1ccc(OC)cc1 (configuration not stated),4,16,8.2,i
COC(=O)C1=C(C)N(Cc2cccc(C(F)(F)F)c2)C(=NCc2ccc(OC)cc2)NC1c1cccc(F)c1 (configuration not stated),-46,-72,-11,i
COc1ccc(CNC(=O)C[C@H]2C[C@@H]3c4cc(NC(=O)CC5CC5)ccc4O[C@@H]3[C@H](CO)O2)cc1,0,-8,-1.3,i
CC(C)NC(=O)Nc1ccc2c(c1)C(=O)N([C@@H](C)CO)C[C@H](C)[C@H](CN(C)Cc1ccc(Oc3ccccc3)cc1)O2,0,-34,19,i
COCC(=O)Nc1ccc2c(c1)[C@@H]1C[C@H](CC(=O)NCc3ccc(Cl)cc3)O[C@H](CO)[C@@H]1O2,2,4,-1.4,i
C[C@@H]1CCCCO[C@@H](CN(C)Cc2ccncc2)[C@H](C)CN([C@@H](C)CO)C(=O)c2cc(NC(=O)Nc3ccc(F)cc3)ccc2O1,-8,-13,2.2,i
O=C(Cc1ccccc1)N1C[C@H]2[C@@H](c3ccccc31)[C@H](CO)N2C(=O)C1CCCC1,-1,-4,-2.0,i
Cc1cccc(C)c1NC(=O)C(c1ccccc1F)n1c(=O)c(-c2ccco2)nc2ccccc21 (configuration not stated),9,5,3.5,i
